# GLA inh pH 4.5 – inhibitors of human alpha-galactosidase A at pH 4.5. P06280. AID 1467. activity change, negative = inhibition, % at 105 µM. purified enzyme, 4-MU-alpha-Gal fluorescence, pH 4.5. 230,000 tested, under 10 active; inconclusive = small, poorly fitted or top-dose-only inhibition, or a rising curve; inactive = flat fitted curve, though single readings scatter; no compound was filed as active;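 note: 0% = full activity with enzyme and -100% = basal without enzyme; dose as in the result columns while the protocol names 77 µM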
# Target sequence (P06280 whole entry, looked up): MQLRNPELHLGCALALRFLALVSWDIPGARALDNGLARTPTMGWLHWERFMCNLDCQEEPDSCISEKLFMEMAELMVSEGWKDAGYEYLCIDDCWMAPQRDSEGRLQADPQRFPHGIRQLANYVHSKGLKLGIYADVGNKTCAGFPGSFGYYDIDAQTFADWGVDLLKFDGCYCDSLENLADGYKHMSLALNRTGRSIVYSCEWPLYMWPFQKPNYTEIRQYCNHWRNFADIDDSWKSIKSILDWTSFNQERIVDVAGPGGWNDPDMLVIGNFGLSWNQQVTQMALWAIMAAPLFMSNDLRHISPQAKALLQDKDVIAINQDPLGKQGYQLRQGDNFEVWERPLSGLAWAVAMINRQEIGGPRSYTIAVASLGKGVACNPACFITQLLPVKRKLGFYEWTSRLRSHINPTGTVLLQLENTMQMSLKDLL
# Rango-impB inh – prevents formation of the Rango-importin beta complex. Q14974. Rango CFP/YFP FRET sensor + importin beta, 45 min. Potency, µM (series often up to 92.2 µM), for inactives: top-dose inhibition of complex formation. actives 0.031% (n = 340,000); active = rising FRET ratio curve, often small or poorly fitted; inconclusive = mostly compound fluorescence or quenching in the first reads; inactive = flat curves in all reads;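 note: potency is the fitted concentration of half-maximal effect; 0% = DMSO wells and 100% = buffer wells lacking importin beta; nearly all actives have a fitted effect of over 15% in size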
#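 Inhibition scored from the CFP 486 nm/YFP 530 nm FRET ratio 45 min after adding 0.125 microM importin beta to 50 nM Rango biosensor preincubated 5 min with compound (room temperature, PBS with DTT, Tween-20, BSA). No-importin wells as positive control.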
# miR-21 FLuc – raises the signal of a miR-21 reporter; Potency, µM (highest dose often 38.3 µM), for inactives: at the highest dose reporter change, positive = more light; HeLa miR-21 FLuc reporter, luciferase, 48 h; AID 2288; 340,000 tested, under 10 active; active = well fitted rising curve with a large enough effect; inconclusive = small, poorly fitted or top-dose-only effect; inactive = no such curve, though single readings can be large or run the other way;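 note: % of control where 0% means no effect; miR-21 action dims this reporter so a rising signal means less miR-21 action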
#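 Using DMEM plus 10% FBS, HeLa miR-21-FLuc cells are incubated with test compounds (final up to about 40uM) for 48 hours; firefly luciferase signal is then imaged following reagent-mediated lysis.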
# Rango dissoc inh – prevents RanGTP from dissociating the Rango-importin beta complex; O95149+P62826; Biochemical FRET Rango-importin beta, RanGTP-induced dissociation; Potency, µM (doses to about 46.1 µM), for the others: at the top dose activity change, negative = inhibition; actives 0.071% (n = 340,000); active means falling FRET ratio curve, often poorly fitted, with flat reads before Ran was added; inconclusive means other falling curves, or compound fluorescence or quenching; inactive means flat or rising ratio curve;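 note: potency is the fitted concentration of half-maximal effect; % of control where 0% means no effect; nearly all actives have a fitted effect of over 45% in size; -100% = wells without RanGTP and RCC1; the record marks most hits as doubtful in a second field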
#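 Recombinant Rango FRET biosensor (EYFP–snurportin 1 IBB–cerulean CFP10) at 0.1 uM premixed with 0.25 uM importin beta in PBS, 1 mM DTT, 0.02% Tween-20, 0.1% BSA. Compound added 5 min; RanGTP-RCC1 (0.6 uM Ran, 2 mM GTP, 0.2 uM RCC1) then triggers release, read at 45 min.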
# * hit, by the source's call; ? = inconclusive; · = not tested or not shown. This is a subset; count on the stated rates, not on these rows.
SMILES,GLA inh pH 4.5,Rango-impB inh,miR-21 FLuc,Rango dissoc inh
Cc1ccc(-n2ncc3c(N4CCCC(C)C4)ncnc32)c(C)c1 (configuration not stated),-3.8,0.1%,-31.7%,15.2%
COc1cccc(NC(=O)CN(C)C(=O)c2cc(C3CC3)nn2-c2ccccc2)c1,·,-0.5%,·,-2.6%
CCCCCCn1c(-c2cccs2)n[nH]c1=S,7.9,-0.8%,-1.0%,10.0%
COc1ccc(CC(=O)OC(C)C(=O)Nc2ccc(S(N)(=O)=O)cc2)cc1 (configuration not stated),·,0.4%,·,-5.9%
O=C(CCS(=O)(=O)c1ccc(Cl)cc1)Oc1ccc2c(c1)OCO2,13.2,0.7%,-12.9%,-1.4%
C/C=C/COC(=O)C1=C(C)NC(=O)NC1c1ccc2c(c1)OCO2 (configuration not stated),·,0.2%,-4.6%,-6.0%
Cc1ccc(NC(=O)COc2coc(CN3CCc4ccccc4C3)cc2=O)c(C)c1,·,-0.2%,·,0.1%
COCCC(=O)N1CCC(Oc2ccc(C(=O)N3C[C@H]4CC[C@H]3C4)cc2)CC1,·,-1.0%,-9.9%,1.3%
Nc1c(C(=O)C2CC2)sc2nc3c(cc12)CCC3,4.3,?,-68.9%,?
COc1ccc(OC)c(NC(=O)COc2ccc(Br)cc2)c1,·,-0.6%,-1.8%,-3.8%
O=C(O)C1CCN(S(=O)(=O)c2ccc3c(c2)OCCCO3)CC1,-1.6,0.7%,-1.8%,1.0%
COc1cccc(N(CC(=O)NC2CCCCC2)C(=O)c2snc(C(N)=O)c2N)c1,·,-0.6%,-8.0%,0.4%
CN(C)C(=S)NC(=O)C12CC3CC(C)(CC(C)(C3)C1)C2,5.3,0.0%,0.4%,-7.3%
COc1ccc(-c2cc(C(F)(F)F)c(C#N)c(SCC(=O)Nc3nc(C)co3)n2)cc1,-1.4,?,-2.3%,1.2%
O=C(Cc1c(F)cccc1Cl)Nc1cc(S(=O)(=O)N2CCOCC2)ccc1N1CCCC1,·,0.6%,·,-9.9%
O=C(NC1CCN(Cc2ccccc2)C1)c1cccc(S(=O)(=O)N2CCOCC2)c1 (configuration not stated),·,2.7%,·,-3.8%
COc1cccc(NC(=O)CN(C)C(=O)c2cn(-c3ccccc3)nc2-c2cccnc2)c1,·,5.5%,·,20.9%
COCCNC(=O)c1cc2cc3ccc(OC)cc3nc2o1,·,3.2%,-37.7%,7.2%
CC(c1ccccc1F)n1cc(C(=O)NCCCc2nc3ccccc3[nH]2)nn1 (configuration not stated),7.4,-0.9%,0.6%,0.6%
Cc1ccc(NC(=O)COC(=O)C2(c3ccc(Cl)cc3)CCCC2)cc1,-8.2,-1.6%,20.2%,-0.9%
Cc1cc(C(C)(C)C)ccc1NC(=O)CC(C)(C)CC(=O)O,5.1,-0.4%,-46.4%,14.0%
O=C(Nc1ccc2c(c1)CCCN2C(=O)c1ccccc1)c1ccccc1Br,·,1.1%,13.6%,3.0%
CCOC(=O)c1cnn(CCOC(=O)Cc2cccs2)c1NC(=O)Cc1cccs1,7.0,-6.7%,-30.6%,1.2%
COn1c2c(c3c4no[n+]([O-])c4ccc31)CCCC2,-3.0,-3.8%,-1.6%,0.8%
O=C(Nc1ccc(F)cc1F)C1CCN(c2ncnc3c2sc2cccc(F)c23)CC1,·,2.7%,-8.7%,-6.6%
CCCCC1(C)OC(=O)C(=Cc2ccc(SC)cc2)C(=O)O1 (configuration not stated),-4.3,-1.8%,-1.9%,-3.7%
COc1ccc(C(=O)O/N=C/c2c(C(F)(F)F)nn(C)c2SCc2ccccc2Cl)cc1,-11.6,-2.1%,-2.7%,0.4%
O=C1/C(=C/c2cccnc2)SC(=NCc2ccccc2)N1Cc1ccccc1,3.5,-1.4%,-0.2%,4.5%
C[C@@H]1OC(Nc2ccc(N=Nc3ccccc3)cc2)[C@H](O)[C@H](O)[C@H]1O (some centres not stated),-2.2,4.7%,-18.0%,-5.5%
c1csc(-c2nc(N3CCCCC3)no2)c1,·,0.1%,-68.3%,-2.7%
CC(C)CC1NC2(C(=O)N(C)c3ccccc32)C2C(=O)N(C(C)C)C(=O)C12 (configuration not stated),0.1,0.0%,-1.1%,10.6%
O=C(NC(=S)Nc1ccccc1[N+](=O)[O-])c1ccccc1,-5.7,2.2%,-63.8%,19.0%
C/C(=N\NC(=O)CC(C)C)c1ccc(Cl)c(Cl)c1,-13.1,0.1%,-37.9%,6.8%
Cc1cc(=O)[nH]c(-c2ccccc2)n1,-1.0,-1.8%,-0.4%,9.3%
CS(=O)(=O)Cc1cc(N2CCCC2)nc(-c2ccccc2)n1,4.0,0.4%,-0.4%,3.0%
Cc1ccc(C)c(C(=O)CCC(=O)N2CCN(c3cccc(C(F)(F)F)c3)CC2)c1,·,-3.1%,·,18.6%
CC(=O)NCCOc1nc(N(C)C)nc(N2CCOCC2)n1,-1.6,-2.2%,-5.5%,3.0%
C=CCn1c(SCc2ccccc2F)nc2cc(C(=O)O)ccc2c1=O,·,-0.8%,-0.5%,16.9%
Cc1c(C2(O)CCCCC2)[nH]c2cnccc12,·,-1.0%,·,-1.8%
Cc1ccc2nc(-c3ccncc3)cc(C(=O)Nc3ccc(F)cc3C)c2c1,·,1.9%,-2.9%,-12.1%
Cc1ccc(C(=O)c2ccccc2C(=O)Nc2ccccc2)cc1,·,-1.4%,·,-3.3%
CC(NC(=O)C(NS(=O)(=O)c1cccc2nsnc12)C(C)C)c1ccccc1 (configuration not stated),·,0.1%,0.3%,-5.1%
Cc1c(CC(=O)O)c(=O)oc2cc(OCc3ccc(F)cc3Cl)ccc12,·,2.0%,-26.8%,1.3%
COc1ccc(C(=O)/C=C/Nc2cc(C)on2)c(OC)c1,-11.6,2.6%,-55.2%,-3.8%
CSc1sc(C(=O)NNC(=O)c2ccc(Cl)cc2)c2c1C=CCC2,-4.2,?,-4.2%,-10.0%
O=C1c2cccnc2C(=O)N1c1cccc([N+](=O)[O-])c1,·,4.2%,4.2%,-0.3%
CCCSCCCNC(=O)CC1Oc2ccccc2NC1=O (configuration not stated),0.8,7.7%,-2.0%,26.8%
CCCc1cc(=O)oc2cc(OCc3ccc(C(=O)O)o3)ccc12,·,-4.1%,-12.8%,-2.5%
COc1ccccc1/C=N\N=C(\N)c1ccccn1,-2.8,0.1%,-73.0%,-3.1%
Cc1ccc(C)n1-c1ccc(N2CCOCC2)c(Br)c1,3.6,-0.7%,-1.1%,7.1%
Cc1cc(C)c(S(=O)(=O)N2CCCCC2C(=O)O)c(C)c1 (configuration not stated),2.4,2.8%,2.7%,-2.0%
CCOC(=O)C1=C(c2ccccc2)NC(=O)N(C(C)=O)C1c1cccc([N+](=O)[O-])c1 (configuration not stated),?,0.5%,-4.1%,-4.5%
CC1CC(C)(C)CC2(C1)NC(=O)N(CC(=O)OCc1ccc(Br)cc1)C2=O (configuration not stated),·,-4.9%,·,-12.1%
O=c1c2cc(N3CCOCC3)ccc2[nH]c(=S)n1Cc1cccc(Cl)c1,1.0,5.0%,-0.8%,?
COC(=O)c1ccc(NC(=O)CSc2nnc(-c3ccncc3)n2C)cc1,3.2,5.8%,1.1%,-0.3%
COc1ccc(NC(=O)CN(Cc2ccccc2)Cc2ccccc2)cc1S(N)(=O)=O,-0.9,0.0%,-10.6%,14.5%
CN1CCN(S(=O)(=O)c2ccc(NC(=O)c3cccs3)cc2)CC1,-1.5,-0.5%,-16.9%,1.2%
COCCn1c(SCc2c(F)cccc2Cl)nc2c1c(=O)[nH]c(=O)n2C,1.2,-3.2%,-27.6%,-14.5%
CC(C)C(=O)N1CCN(S(=O)(=O)c2ccc3ccccc3c2)CC1,·,-2.2%,2.7%,-4.5%
CCNS(=O)(=O)c1ccc(NC(=O)Cn2nc(C(F)(F)F)cc2C)cc1,3.5,-0.9%,4.6%,6.0%
# More compounds
SMILES,GLA inh pH 4.5,Rango-impB inh,miR-21 FLuc,Rango dissoc inh
COc1ccc(/C=C/C(=O)OCC(=O)NC2CCS(=O)(=O)C2)cc1 (configuration not stated),·,0.2%,·,-16.2%
Cc1cc(C)cc(NC(=O)COC(=O)c2ccc(CN3CCCC3=O)cc2)c1,·,-4.8%,·,7.1%
CCCN(CCC)S(=O)(=O)c1cc(CN2C(=O)c3cccnc3C2=O)ccc1OC,·,-0.4%,0.3%,8.5%
COC(=O)CN1C(=O)[C@H]2[C@@H](c3ccc(C)o3)N3C(=O)CN(Cc4ccc(-c5ccccc5)cc4)C(=O)[C@@]3(C)[C@H]2C1=O,·,-0.6%,0.2%,9.2%
CCOC(=O)/C(C#N)=C/NC(=O)NC(C)(C)C,10.8,-2.8%,0.6%,11.9%
COc1ccc(-c2cc(C(=O)OCC(=O)NC(C)C)c3ccccc3n2)cc1,3.3,?,-0.7%,5.1%
O=C(NCc1ccccc1)c1ccc2c(=O)[nH]c3c(C(=O)NCC4CCCO4)sc(=S)n3c2c1 (configuration not stated),1.5,0.3%,-9.7%,0.5%
COc1ccc(N2C(=O)CSC23C(=O)Nc2ccccc23)cc1 (configuration not stated),-2.3,-3.5%,-7.4%,-16.3%
COc1ccc(/C=N/Nc2snc(SC)c2C#N)cc1OC,-4.5,?,-40.7%,?

# Whole records, quoted from the list. Order of values: GLA inh pH 4.5	Rango-impB inh	miR-21 FLuc	Rango dissoc inh
# Entry for COc1ccc(-c2cc(C(=O)OCC(=O)NC(C)C)c3ccccc3n2)cc1 : 3.3	?	-0.7%	5.1%
# Entry for COC(=O)CN1C(=O)[C@H]2[C@@H](c3ccc(C)o3)N3C(=O)CN(Cc4ccc(-c5ccccc5)cc4)C(=O)[C@@]3(C)[C@H]2C1=O : ·	-0.6%	0.2%	9.2%
# Entry for COc1ccc(N2C(=O)CSC23C(=O)Nc2ccccc23)cc1 (configuration not stated) : -2.3	-3.5%	-7.4%	-16.3%
# Entry for COc1ccc(/C=N/Nc2snc(SC)c2C#N)cc1OC : -4.5	?	-40.7%	?

# Among those listed so far, three have a furan ring, fused or not:
SMILES,GLA inh pH 4.5,Rango-impB inh,miR-21 FLuc,Rango dissoc inh
COCCNC(=O)c1cc2cc3ccc(OC)cc3nc2o1,·,3.2%,-37.7%,7.2%
CCCc1cc(=O)oc2cc(OCc3ccc(C(=O)O)o3)ccc12,·,-4.1%,-12.8%,-2.5%
COC(=O)CN1C(=O)[C@H]2[C@@H](c3ccc(C)o3)N3C(=O)CN(Cc4ccc(-c5ccccc5)cc4)C(=O)[C@@]3(C)[C@H]2C1=O,·,-0.6%,0.2%,9.2%

# Assay outcomes from PubChem BioAssay.
